High-throughput results (PubChem)
ALR inh: blocks human ALR sulfhydryl oxidase activity; purified ALR, DTT oxidation, H2O2 HRP-luminol luminescence; inhibition, % (concentration not given with the values); 290,000 compounds, 3.8% hits; AID 485317;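 active = mean and each replicate at 75% or more; inconclusive = only one of the two met; inactive = neither met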;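 also: stock transfer was 7.5 nL into about 7.5 µL; 0% = neutral wells and 100% = wells with inactivated enzyme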
Target sequence (P55789 whole entry, looked up): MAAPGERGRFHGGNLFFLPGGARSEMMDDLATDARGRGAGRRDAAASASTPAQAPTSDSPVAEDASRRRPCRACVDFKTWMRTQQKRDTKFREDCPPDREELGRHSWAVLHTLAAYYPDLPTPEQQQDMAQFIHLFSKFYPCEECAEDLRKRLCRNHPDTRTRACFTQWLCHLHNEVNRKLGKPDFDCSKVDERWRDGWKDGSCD
LANA-H2B inh: blocks KSHV LANA binding to histone H2A/H2B. inhibition, % (test concentration not listed). 320,000 compounds, 0.6% hits. cell-free LANA-H2A/H2B peptide, fluorescence polarization. Q9QR71; in the data active = inhibition mostly above about 10%, no sharp cut-off; inactive = mostly below about 6.7%;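 also: stock transfer was 7.5 nL into about 10 µL; 0% = median of vehicle wells and 100% = median of positive control wells; one replicate is shown; the record names a cut of 25% in any replicate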
Beta apoptosis: beta cell apoptosis inhibition | INS-1E cytokine-induced death, ATP luminescence, 48 h; percent of positive-control rescue, neutral wells zero | protection from apoptosis, % (no concentration beside the values) | 300,000 compounds, 0.8% hits;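 active = all replicates at 75% or more, or half of them and the mean; inconclusive = half reach 75% but not the mean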;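 also: 0% = cytokine-treated negative control wells and 100% = positive control rescue; higher means more ATP so stronger rescue from cytokine killing; wells of about 40 µL received 100 nL stock; the first replicate is given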
B2AR ag: activates human beta-2 adrenergic receptor causing internalization. AID 504454. Am2.2-beta2AR cells, FAP receptor internalization, flow cytometry; reference of the scale not given here. 340,000 compounds, 0.43% hits. response, % (no concentration beside the values);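 active = response above a set limit, near 3 SD of response in nonfluorescent compounds, cut at about 42% in these data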;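 also: stock transfer was 100 nL into about 11 µL; a reference agonist was the positive control; negative values mostly stem from fluorescent compounds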
Target sequence (P07550 whole entry, looked up): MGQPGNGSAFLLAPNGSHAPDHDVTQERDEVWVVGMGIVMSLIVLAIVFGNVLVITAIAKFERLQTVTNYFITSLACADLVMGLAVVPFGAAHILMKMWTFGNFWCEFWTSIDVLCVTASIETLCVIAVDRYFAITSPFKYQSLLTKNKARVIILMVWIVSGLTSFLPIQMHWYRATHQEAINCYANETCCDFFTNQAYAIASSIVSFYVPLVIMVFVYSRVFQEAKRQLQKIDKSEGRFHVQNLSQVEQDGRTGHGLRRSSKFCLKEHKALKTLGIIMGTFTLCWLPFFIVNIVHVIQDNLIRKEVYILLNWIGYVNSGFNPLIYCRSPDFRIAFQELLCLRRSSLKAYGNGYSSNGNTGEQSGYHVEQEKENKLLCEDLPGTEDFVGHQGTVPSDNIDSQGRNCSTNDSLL
T cruzi inh: T. cruzi replication inhibition; T. cruzi beta-gal in NIH3T3, luminescence, 90 h; inhibition, % (test concentration not listed); 300,000 compounds, 1.4% hits; AID 1885;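 active = mean inhibition across valid replicates above about 55%, limit read from the data; inconclusive = mean below that limit but half or more replicates reach it; inactive = mean below it, under half of replicates reach it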;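 also: signal also drops with host cell toxicity which is not excluded here; 0% = plate median of DMSO wells and 100% = zero luminescence signal; higher percent means less beta-gal luminescence so fewer parasites; stock transfer was 50 nL into about 50 µL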
Ecoli rRNA inh: selective bacterial rRNA inhibition in E. coli; E. coli WT GFP vs humanized-ribosome RFP mutants, fluorescence, 24 h; stronger effect = lower value; DMSO median 0, no signal -100; GFP signal change (wild-type ribosome), % (test concentration not listed); 350,000 compounds, 1.6% hits;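 active = significant combined selectivity score with lowered wild-type GFP, culture density cut under 30%, mutant RFP and density less affected; inactive = any of these conditions unmet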; also: one replicate is shown; some compounds called inactive have numbers as strong as hits
Calb FLC: C. albicans growth modulation with fluconazole. 300,000 compounds, 0.57% hits. C. albicans CaCi-2 (fluconazole-resistant clinical isolate) + fluconazole, Alamar Blue growth, 48 h. growth inhibition, % (concentration not given with the values);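 active = most replicates above 75%; inconclusive = exactly half above 75%; inactive = most below 75%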;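 also: all wells also contain fluconazole at 8 µg/ml as a sub-toxic cotreatment; 0% = median of DMSO wells and 100% = median of geldanamycin control wells; wells of about 8 µL received 7.5 nL stock; the first replicate is given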
A1 inh: inhibitors of the anti-apoptotic protein A1, read as caspase activation | MEF A1-2A-BIM cells, Caspase-Glo 3/7 luminescence, 3 h; percent of clofoctol response, vehicle zero | caspase activation, % (concentration not given with the values) | 330,000 compounds, 0.066% hits | AID 2462;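 active = over half of replicate activation scores above 10%, or exactly half above 10 with the replicate mean above 10; inconclusive = replicate mean below 10 yet half the replicates above 10; inactive = over half of replicates below 10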;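 also: wells of about 30 µL received 50 nL stock; many hits fall short of the cut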
Ecoli rRNA inh OD600: recorded beside Ecoli rRNA inh, whose call it bears; OD600 change, %; measured here: OD600 growth;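 optical density of the mix in the first replicate; 0 = DMSO median and -100 = no signal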
Ecoli rRNA inh RFP: second read-out of Ecoli rRNA inh, no call of its own (marks repeat the call); RFP signal change, %; measured here: RFP humanized mutant strains;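 first replicate; 0 = DMSO median and -100 = no signal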
Starred values were filed as active, the others as inactive; ? = inconclusive; · = not tested or not shown; & = joins results of further samples. Only part of the results is shown; the hit share may differ from the screen's.

SMILES	ALR inh	LANA-H2B inh	Beta apoptosis	B2AR ag	T cruzi inh	Ecoli rRNA inh	Ecoli rRNA inh OD600	Ecoli rRNA inh RFP	Calb FLC	A1 inh
C=CCOc1cccc(/C=N/NC(=O)CN(c2cc(Cl)ccc2OC)S(=O)(=O)c2ccc(C)c([N+](=O)[O-])c2)c1	-3.9	1.2	0.4	3.3	31.7	6.3	6.1	-0.8	1.5	0.6
COc1cc(/C=N\n2cnnc2)ccc1OCC(=O)Nc1ccc(C)cc1	-2.1	-4.8	0.4	-13.9	2.2	·	·	·	-0.7	1.0
COc1cccc(NC(=O)CCN2C(=O)C3CC=CCC3C2=O)c1 (centres undefined)	-1.1	-2.7	2.2	-8.3	17.0	2.5	-0.1	3.0	-0.8	-0.4
C[C@H](N=C1NS(=O)(=O)c2ccccc21)C(=O)OCc1cc([N+](=O)[O-])cc2c1OCOC2	-2.4	-1.9	-2.9	-3.1	-6.9	-4.8	-2.2	-3.9	13.3	0.5
S=C(Nc1cccc(Cl)c1Cl)N1CCCC1	-7.5	-2.7	4.1	-3.4	·	-1.6	8.8	-2.8	-16.9	0.6
Cc1cccc(C(=O)N2CCC(Cc3ccccc3)CC2)c1[N+](=O)[O-]	-34.5	-6.5	4.7	7.5	-8.4	·	·	·	17.2	0.5
CC(OC(=O)CNC(=O)C12CC3CC(CC(C3)C1)C2)C(=O)Nc1ccc(S(N)(=O)=O)cc1 (centres undefined)	-14.8	3.9	-2.9	3.6	-8.2	-14.6	-7.5	2.5	-3.8	0.7
Cc1ccc(C(=O)NNC(=O)c2cccc(S(=O)(=O)N3CCN(c4ccccc4)CC3)c2)cc1	·	-9.1	-0.7	-1.7	-2.1	·	·	·	2.6	2.0
N#Cc1cnn(-c2ncnc3sc4c(c23)CCCC4)c1N	4.3	1.3	-2.7	21.4	-1.2	·	·	·	8.6	-0.3
CCN(CC(=O)Nc1ccc(NC(C)=O)cc1)S(=O)(=O)/C=C/c1ccccc1	2.8	-0.5	-3.6	-3.8	·	-9.7	-9.6	-1.0	·	1.4
COc1cc(C2NC(=S)NC(c3ccccc3)=C2C(C)=O)cc(Cl)c1OCC(=O)O (centres undefined)	8.3	-0.1	-5.9	3.3	-14.9	10.6	3.4	-8.0	21.2	0.3
C=CCN1C(=O)c2ccccc2NC1c1ccc(Br)s1 (centres undefined)	-2.1	-2.4	-4.8	6.8	10.0	-15.5	-25.1	-0.6	-7.6	0.0
CC(Oc1ccccc1Cl)c1nnc(N)s1 (centres undefined)	-6.1	-3.5	-17.7	5.1	4.4	·	·	·	14.1	-0.1
CCOc1ccc(N(CC(=O)N2CC=C(c3ccccc3)CC2)S(=O)(=O)c2c(C)noc2C)cc1	61.4	3.4	1.4	2.8	11.4	-2.1	-1.3	0.1	7.3	0.2
CCOCCCNC(=O)c1oc2ccc(S(=O)(=O)N3CCOCC3)cc2c1C	-3.9	-2.8	-9.4	9.4	-9.3	0.8	1.2	-3.7	-4.3	0.0
CCCc1cc(=O)oc2cc(OCC(=O)NC(Cc3c[nH]c4ccc(O)cc34)C(=O)O)c(Cl)cc12 (centres undefined)	-18.9	-0.7	·	-10.1	1.0	5.3	-1.2	-0.1	0.7	0.0
CC(=O)c1sc(C(C)(C)C)cc1NC(=O)/C=C/C(=O)O	9.7	-6.3	-6.1	7.8	·	-1.9	-3.6	0.1	-4.1	0.3
COc1cc(/C=N/NC(=O)c2ccncc2)cc(OC)c1OC	-15.4	2.9	-0.8	-0.2	-10.9	11.3	7.7	0.4	-2.2	0.3
C(=N\Nc1nc2ccccc2[nH]1)/c1c[nH]c2ccccc12	99.3*	0.3	118.7*	6.8	?	·	·	·	2.1	-0.9
CCN(C(=S)Nc1ccccc1F)C1CCCCC1	0.3	6.7	11.4	2.4	-69.0	·	·	·	-17.0	0.6
O=C(Nc1ncccc1O)c1c(O)c2ccccc2[nH]c1=O	-19.4	0.5	-3.6	0.4	-10.6	15.1	4.4	-2.9	-7.5	-0.4
COc1ccc(-c2nnc(SC(C)C(=O)NCc3ccc4c(c3)OCO4)n2Cc2ccco2)cc1 (centres undefined)	-17.7	5.6	-0.5	6.7	11.6	-21.6	-18.3	4.7	-20.0	0.1
CCCCOC(=O)C1=C(C)Nc2nnnn2C1c1ccc(OC)c(OC)c1OC (centres undefined)	10.7	-2.9	-2.4	0.9	-4.1	·	·	·	-8.9	1.0
CCOC(=O)c1c(CCl)nc2ccccc2c1-c1ccccc1	95.5*	7.7	0.6	3.0	2.9	8.4	4.0	0.3	3.3	0.8
O=C(Nc1ccc(Cl)cc1)N1CCSC1=NCc1ccccc1	0.7	-6.4	-2.5	-0.9	12.9	·	·	·	-7.2	-0.7
CCCn1c(=N)n(CC(O)c2ccc(C)cc2)c2ccccc21 (centres undefined)	-21.0	0.2	-3.5	-10.8	9.6	-3.7	-1.0	-1.9	-36.0	0.1
CNC(=O)c1c(NC(=O)c2ccc(S(=O)(=O)N3CCCCC3)cc2)sc2c1CCN(C(C)C)C2	-4.4	-0.3	·	9.1	8.5	-8.5	-1.1	0.0	1.8	0.0
COc1ccc(NC(=O)Nc2ccc3c(c2)C(=O)N([C@H](C)CO)C[C@H](C)[C@@H](CN(C)S(=O)(=O)c2ccc(F)cc2)O3)cc1	-12.6	1.5	4.0	-4.9	·	-7.1&-13.9	-2.9&-0.1	2.8&1.3	·	-0.8
Nn1c(SCC(=O)NC2CCCC2)nnc1-c1ccccc1F	-13.6	-5.7	-6.5	-6.4	-1.1	·	·	·	3.5	-0.3
CC(C)CC(NC(=O)OC(C)(C)C)C(=O)NCc1ccccc1 (centres undefined)	-18.6	2.9	0.2	5.7	-10.6	·	·	·	-12.0	0.3
CC1CCCCC1NC(=O)CN1C(=O)c2ccccc2S1(=O)=O (centres undefined)	-2.4	-0.4	-5.3	1.8	-6.9	5.0	9.2	0.7	4.0	1.0
Cn1cccc1/C=N\NC(=O)C1COc2ccccc2O1 (centres undefined)	14.9	-2.9	0.8	1.2	-4.6	7.9	3.1	-3.5	-7.7	-0.3
O=C(c1ccccc1Cl)N1N=C(c2cccs2)CC1c1cccc(O)c1 (centres undefined)	-1.4	-1.6	-3.0	11.8	27.1	7.8	-2.1	-0.4	20.0	1.5
CCOc1ccc(Oc2cc(NC(=O)c3ccco3)cc([N+](=O)[O-])c2)cc1	-1.8	·	7.6	-1.8	·	·	·	·	·	-0.7
O=C(Cn1cnc2ccccc2c1=O)NCCC(=O)N1CCN(Cc2ccccc2)CC1	-9.3	-5.8	1.5	-1.8	5.2	·	·	·	?	0.6
CC(C)NC(=O)Cn1cc(C(=O)C2CC2)c2ccccc21	-2.3	-0.1	-3.7	-6.3	-7.0	11.7	14.2	-0.8	-21.4	0.0
O=C(Nc1ccc(Cn2cccn2)cc1)c1ccc(COc2ccccc2Br)cc1	-4.0	-3.2	-2.5	34.5	38.9	·	·	·	2.2	0.9
O=C(Nc1cccc(C(=O)Nc2ccc(Br)cc2)c1)c1ccccc1	-0.3	-1.4	13.0	6.3	-6.5	2.9	8.3	-0.8	10.2	-0.4
O=C(OCCN1CCCCC1)c1ccccc1Cl	-2.4	-0.2	0.6	4.9	8.6	-3.7	-1.1	-3.9	-0.9	1.5
Nc1nnc(CC(c2ccccc2)c2ccccc2)s1	·	0.5	-1.3	1.1	-8.5	·	·	·	3.6	1.0
CCC(C)N(C(=O)COC(=O)COc1c(C)cc(C)cc1C)C1CCS(=O)(=O)C1 (centres undefined)	·	-7.4	0.3	-2.6	-13.0	-2.0	4.3	-2.9	-0.9	-0.6
N#Cc1ccccc1Cn1cc(C#N)c2ccccc21	-16.1	-4.6	-4.8	4.8	0.6	·	·	·	2.9	0.9
O=C(c1ccc(F)cc1F)N1CCCc2ccccc21	-2.0	-0.8	-6.6	-8.5	-11.2	3.5	-7.1	1.1	-5.6	-0.1
O=C(O)COc1ccccc1/C=N/NC(=O)CSc1nnc(SCc2cccc3ccccc23)s1	96.7*	-7.1	-3.8	2.1	-0.7	6.4	8.6	0.3	4.9	0.3
CC1CCN(C(=O)/C(=C/c2ccccc2Cl)c2ccccc2)CC1	1.0	1.4	-1.3	1.6	18.9	·	·	·	10.6	1.9
C/C(=N/NC(=O)c1nnn(-c2nonc2N)c1COc1ccccc1)c1ccccc1Cl	-2.1	-6.6	5.1	-8.0	5.0	-26.4	-28.8	-4.2	·	1.3
Cc1ccc(Cn2nnc(C(=O)Nc3cccc(C)c3C)c2N)cc1	3.0	-4.7	-2.3	-5.8	-56.0	-5.3	5.0	-0.3	4.8	0.7
CC(C)=N/N=C(\N)SCc1ccccc1	60.0	-2.8	1.8	-4.7	-6.7	7.4	15.4	0.6	-3.7	0.6
COc1cc(C(=O)NCCOc2cc(C)cc(C)c2)cc(OC)c1OC	-1.5	3.1	20.4	-13.2	-49.0	-9.2	-4.4	1.3	-8.7	0.3
Cc1ccc(Oc2nc(-c3ccccc3)ncc2S(C)(=O)=O)cc1	13.4	-7.6	-5.8	-10.0	3.8	·	·	·	0.0	-1.5
O=C(CSc1nnc2scc(-c3ccccc3)n12)NCc1ccco1	2.9	0.8	0.3	0.3	-6.0	·	·	·	2.2	-0.4
CCOC(=O)N1CCC(=NNc2ccnc3cc(Cl)ccc23)CC1	0.4	-2.1	-10.8	-14.4	-1.2	-1.3	-7.2	9.0	·	-0.1
COc1ccc2c(c1)N(C(=O)CN1C(=O)C3CCCCC3C1=O)C(C)(C)C=C2C (centres undefined)	7.0	2.6	-1.8	-6.0	11.9	·	·	·	3.8	1.4
CC(=O)COC(=O)C1=NN(c2ccccc2)C(=O)CC1	-7.3	1.6	2.8	-5.1	9.8	10.9	4.1	-1.0	-2.2	2.1
Nn1c(Cc2ccccc2)n[nH]c1=S	94.8*	-2.0	-0.1	-4.9	-13.5	16.9	15.2	-0.1	-0.1	1.5
CC1CCN(S(=O)(=O)c2ccc(NC(=O)c3cccs3)cc2)CC1	0.3	-4.2	4.9	-5.4	15.2	·	·	·	-6.2	0.0
COC(=O)[C@H](CC(C)C)NC(=O)Nc1cccc(Br)c1	-28.7	-1.7	-5.0	3.7	-14.4	5.0	6.1	2.2	-11.6	0.9
Cn1c(CN2CCOCC2)nnc1SCc1cccc(F)c1	-1.4	1.1	-7.6	-4.1	-19.9	16.2	24.2	-1.2	0.5	0.7
CC(=O)c1ccc(C(=O)N2CCCC(Nc3ccc(C(C)C)cc3)C2)s1 (centres undefined)	67.0	1.0	1.9	0.8	5.0	-6.1	-36.1	-4.0	3.4	-0.7
CC1(C)C2CC[C@]3(C)C(CC=C4[C@@H]5C[C@@](C)(CO)[C@@H](O)C[C@]5(C(=O)O)CC[C@]43C)[C@@]2(C)CC[C@@H]1O (some centres undefined)	·	-1.1	-4.3	·	-2.9	·	·	·	1.0	0.0
